Prx2 Sm inh: Schistosoma mansoni Prx2 inhibition. actives 0.07% (n = 65,000). S. mansoni Prx2 activity coupled to TGR/GSH (TGR is thioredoxin glutathione reductase), NADPH fluorescence loss, qHTS; some inactives read as strong as hits. Potency, µM. AID 448; active means full or partial inhibition curve with a strong effect at the top dose; inconclusive means weaker partial or single-point curve; inactive means no accepted curve; further: series up to 57 µM; many of its hits are not listed in these tables
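qHTS, coupled TGR/Prx2 format; 15 min compound preincubation at RT; reaction started with H2O2 (2.5 mM aliquot); kinetic NADPH fluorescence decrease, ex 365/em 450 nm.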
LT uptake inh: blocks cellular internalization of anthrax lethal toxin; Cells, anthrax lethal toxin internalization, FRET ratio (460/530); Potency, µM (series often up to 40 µM), for inactives: top-dose activity change, negative = inhibition, actives largely listed as inhibitors; actives 0.67% (n = 70,000); AID 912; active = well fitted falling ratio curve with the 530 nm signal flat; inconclusive = other ratio curves, or a change in one channel alone; inactive = flat curves in the ratio and both channels; the % refers to the ratio; further: on the % scale 0 is the no-effect control and ±100 the full control effect; nearly all actives have a fitted effect of over 50% in size; tested in ME-180 cells; beta-lactamase reporter
* marks the source's active call; other numbers are inactive results; ? = inconclusive; . = no result given; [ ] = remark or other dose. Potency means the concentration at half of the fitted maximal effect.

SMILES | Prx2 Sm inh | LT uptake inh
O=C(NCCc1ccccc1)c1ccc2c(c1)N(Cc1ccccc1)C(=O)CS2=O (centres undefined) | >57 | -12%
CC1(C)CC(=O)c2cc(C(=O)Nn3cnnc3)c(=O)n(-c3ccccc3)c2C1 | >57 | -11%
COc1ccc(-c2cc(C(F)(F)F)nc(N3CCOCC3)n2)cc1OC | >57 | 10%
CC(=O)c1cccc(NC(=O)N2CCCC2C(=O)NC2CCCCC2)c1 (centres undefined) | >57 | 10%
CCC12CN(C(=O)c3ccc(OC)cc3)CC(CC)(CN(C(=O)c3ccc(OC)cc3)C1)C2=O | >57 | 2%
CC1Cc2cc(/C(O)=C3/C(=O)C(=O)N(CCCN(C)C)C3c3ccncc3)ccc2O1 (centres undefined) | >57 | -2%
Cc1c(C(=O)Nc2ccccc2)sc2nc(-c3ccccc3)cn12 | >57 | ?
O=C(OCC(F)(F)C(F)F)c1ccccc1C(=O)Oc1ccc(F)cc1F | . | ?
O=C(O)CCc1nnc2n(Cc3ccc(F)cc3)c(=O)c3ccccc3n12 | >57 | -11%
Cc1ccc(Nc2nc(N)nc(CN3CCN(C)CC3)n2)cc1 | >57 | ?
CCC1(C)Cc2c(sc3c2c(=O)n(C)c2nnc(SCC(=O)c4ccccc4)n32)CO1 (centres undefined) | >57 | 7%
C[C@@](N)(C(=O)O)c1cccc(CC(=O)O)c1 | >57 | ?
O=C(c1cccs1)N(Cc1ccco1)Cc1cc2ccccc2[nH]c1=O | >57 | -2%
COC(=O)[C@H](Cc1ccccc1)NC(=O)[C@@H](N)CC(=O)O | . | -4%
c1ccn2c(SCc3ccc4c(c3)OCCO4)nnc2c1 | >57 | 5%
COCCN(CCOC)C(=O)c1cc2c(=O)n3ccccc3nc2s1 | >57 | 3%
CCc1ccc(OC)c(S(=O)(=O)Nc2ccccc2C)c1 | . | -14%
NCCNS(=O)(=O)c1ccc(N)cc1 | >57 | 0%[8 µM]
CCOC(=O)CSc1nnc(-c2ccncc2)o1 | >57 | ?
Cc1ccc(C(=O)CC2(O)C(=O)N(Cc3ccc4c(c3)OCO4)c3ccccc32)cc1 (centres undefined) | >57 | -18%

The list goes on:
SMILES | Prx2 Sm inh | LT uptake inh
Cc1occc1-c1nnc(SCC(=O)c2ccc(F)cc2)n1Cc1ccco1 | >57 | -13%
Cc1ccc(N(CC(=O)N2CCc3ccccc32)C2=NC(=O)CS2)cc1 | >57 | 4%
CCN(CC)S(=O)(=O)c1ccc(S(=O)(=O)N2CCN(CCC#N)CC2)cc1 | >57 | 9%
CS(=O)(=O)N1CCCC(C(=O)NCCCN2CCN(Cc3ccccc3)CC2)C1 (centres undefined) | >57 | 6%
Cc1cc(C)c(S(=O)(=O)Nc2ccc(OCC(=O)O)cc2)c(C)c1 | >57 | 5%
O=C(O)c1ccc(N2CCCCCC2)c(N2C(=O)c3ccccc3C2=O)c1 | . | ?
COc1c(-c2ccc(O)c(O)c2)oc2cc(O)cc(O)c2c1=O | >57 | -2%
COc1ccc(-n2nnnc2SCC(=O)N2CCOCC2)cc1 | >57 | 0%
CC(C)NC(=O)c1ccccc1NC(=O)CN(c1ccc2c(c1)OCO2)S(C)(=O)=O | >57 | 0%
CCCN1C(=O)NC2(O)C(=O)c3ccccc3C12O (centres undefined) | >57 | ?
COc1cccc(-c2cncnc2NC2CCNCC2)c1 | >57 | -4%
Fc1cccc(Cl)c1/C=N\N=C1c2ccccc2-c2ccccc21 | >57 | -29%[8 µM]
Cc1cccc(C#N)c1 | . | 5%
Cc1ccc(OP(=O)(Oc2ccc(C)cc2)N2C=Cc3ccccc3[C@H]2C#N)cc1 | >57 | ?
CC(C)(O)C1=NOC(c2ccccc2)C1 (centres undefined) | . | -5%
COC(=O)C1=C(C)NC(=O)CC1c1ccccc1F (centres undefined) | . | -4%
COC(=O)c1cccc(NC2CC(=O)N(c3ccc(OC)c(OC)c3)C2=O)c1 (centres undefined) | >57 | -5%
COc1cccc(Nc2ncc3ncc(=O)n(C4CC4)c3n2)c1 | >57 | 0%
COc1ccc(OCC(O)COc2ccc(OC)cc2)cc1 | >57 | -7%
CN(C(=O)CCN1C(=O)C(C)(C)Nc2ccccc21)c1ccccc1 | >57 | 6%

Already shown: entries from further up.
SMILES | Prx2 Sm inh | LT uptake inh
Cc1occc1-c1nnc(SCC(=O)c2ccc(F)cc2)n1Cc1ccco1 | >57 | -13%
Cc1ccc(N(CC(=O)N2CCc3ccccc32)C2=NC(=O)CS2)cc1 | >57 | 4%
CCN(CC)S(=O)(=O)c1ccc(S(=O)(=O)N2CCN(CCC#N)CC2)cc1 | >57 | 9%

Going on with the list:
SMILES | Prx2 Sm inh | LT uptake inh
O=C(c1ccco1)N1CCC[C@@]2(CCN(Cc3ccccc3)C2)C1 | >57 | ?
O=C(C1CC1)N1CCc2cc(Br)cc(S(=O)(=O)N3CCOCC3)c21 | >57 | ?
CCCN1CCN(CCCNC(=O)Cn2ncc3c4ccccc4n(C)c3c2=O)CC1 | >57 | -25%
COc1ccc(OC)c(N=c2oc3c(OC)cccc3cc2C(=O)NCc2ccco2)c1 | >57 | -22%
Cc1nc2cncnc2n(-c2ccccc2)c1=O | >57 | 3%
COc1cccc(Cn2c(=O)c(-c3cc(F)cc(F)c3)nc3cnc(N4CCN(C)CC4)nc32)c1 | >57 | ?
CN1CCN(C(=O)OC2c3nccnc3C(=O)N2c2ccc(Cl)cn2)CC1 (centres undefined) | >57 | .
COc1cc2c(cc1OC)C1=C(C#N)CC/C(=N\S(=O)(=O)c3ccccc3)N1CC2 | >57 | -4%
Cc1cccc(OCCOC(=O)C2CCN(S(=O)(=O)c3cccs3)CC2)c1 | >57 | -13%
CC(=O)c1cccc(NC(=O)CSc2nnc(-c3ccc(S(=O)(=O)N4CCCC4)cc3)o2)c1 | >57 | -4%
CC1CN(c2ccccc2)C(=O)CS1 (centres undefined) | >57 | ?
O=C(CC1(O)C(=O)N(Cc2ccccc2Cl)c2ccccc21)c1ccco1 (centres undefined) | >57 | -26%
COc1ccccc1OC(=O)c1ccc(SC)cc1OC | >57 | 0%
COc1ccccc1C(=O)NCCn1ccc2ccccc21 | >57 | -16%
O=C1c2ccccc2NC(c2ccccc2)N1c1ccc(O)cc1 (centres undefined) | . | -17%
Cc1cc(Nc2ccc(O)cc2)ccc1N | . | ?
N#Cc1ccc(CN2CC[C@@]3(CCCN(C(=O)c4ccncc4)C3)C2)cc1 | >57 | ?
O=C(CSc1nc2ccccc2o1)NCC(=O)c1ccccc1 | >57 | -12%
CCOC(=O)C1CCN(C2CC(=O)N(c3ccc(OCC)cc3)C2=O)CC1 (centres undefined) | >57 | -2%
O=C(O)C1C2C=CC(C2)C1C(=O)N1CCc2ccccc21 (centres undefined) | >57 | 4%

(further entries)
SMILES | Prx2 Sm inh | LT uptake inh
CCOCCc1nnc(NC(=O)CSc2ccccc2)s1 | >57 | 4%
OC12Oc3ccccc3C=C1N1CCC2CC1 (centres undefined) | >57 | 7%
CN(C)c1nc(N)nc(CSc2nnnn2C)n1 | >57 | 0%
C=CCC1(O)C(=O)Nc2ccccc21 (centres undefined) | >57 | 2%
CC(=O)N1CCc2cc(S(=O)(=O)CCC(=O)N3CCN(c4ccccn4)CC3)ccc21 | >57 | 10%
Cc1noc(C)c1-c1nc(N2CCOCC2)c2ccccc2n1 | >57 | -3%
CCN1CCCC1CNC(=O)Cn1ncc2c(=O)oc3ccc(C)cc3c21 (centres undefined) | >57 | -5%
CCOc1ccc(NC(=O)Cn2nnc(-c3ccccc3F)n2)cc1 | >57 | -11%
NC(=O)CCS(=O)(=O)CCN1CCCCC1 | >57 | -7%
COCCCNc1nc(=S)[nH]c2cc(OC)c(OC)cc12 | >57 | 2%
CCCCCCn1c(N2CCN(c3cccc(Cl)c3)CC2)nc2c1c(=O)[nH]c(=O)n2C | >57 | 15%
CC1CN(C)C(C)CC1NCc1ccc2c(c1)OCO2 (centres undefined) | >57 | -10%
CC(=O)OCC(=O)c1ccc2ccn(C(C)=O)c2c1 | >57 | -1%
COC(=O)[C@@H]1CCCN1C(=O)[C@@H](C)CO | . | -5%[1.6 µM]
CN(C)S(=O)(=O)c1ccc(C(=O)OCc2ccc(C#N)cc2)cc1 | >57 | ?
Cc1nc2cnc(Nc3ccccc3)nc2n(Cc2ccc(F)cc2)c1=O | >57 | ?
CCOc1ccc(-n2c(O)c(C=NCCN(CC)CC)c(=O)[nH]c2=O)cc1 | >57 | 4%
CC(C)c1ncc(C(O)c2cccc3ccccc23)n1C (centres undefined) | >57 | 13%
COc1cccc(C2=NOC(C(=O)NCc3ccc(F)cc3)C2)c1 (centres undefined) | >57 | ?
O=C(NCc1cccs1)c1nc2ncccn2n1 | >57 | 1%

Single records, from the list above. Values in the order: Prx2 Sm inh	LT uptake inh
Record of `CN(C)S(=O)(=O)c1ccc(C(=O)OCc2ccc(C#N)cc2)cc1` = >57	?
Record of `O=C(NCc1cccs1)c1nc2ncccn2n1` = >57	1%
Record of `CCN1CCCC1CNC(=O)Cn1ncc2c(=O)oc3ccc(C)cc3c21` (centres undefined) = >57	-5%
Record of `CCOc1ccc(NC(=O)Cn2nnc(-c3ccccc3F)n2)cc1` = >57	-11%

Later entries:
SMILES | Prx2 Sm inh | LT uptake inh
O=C1c2ccccc2C(=O)N1CCOCCN1C(=O)c2ccccc2C1=O | >57 | ?
CCOC(=O)c1[nH]c(C)c(CN(CCc2ccc(OC)c(OC)c2)C(=O)CCCC(=O)O)c1C | >57 | 7%
C/C(CCN1CCCc2nc(C)c(C)cc21)=N\O[C@@H](C)c1cn([C@@H]2COC[C@@H]2O)nn1 | . | -9%[8 µM]
CC1CCOC2(O1)C(=O)N(CN1CCN(c3ccccc3F)CC1)c1ccccc12 (centres undefined) | >57 | -10%
CC1(C)Cc2cccc(OCC(=O)Nc3cccnc3)c2O1 | >57 | -7%
O=C(NCc1cccnc1)C1CCN(S(=O)(=O)c2cccs2)CC1 | >57 | -14%
CC1CCCCN1c1nnc(N)s1 (centres undefined) | >57 | 5%
CN1C(=O)CC(N2CCC(c3nc4ccccc4[nH]3)CC2)C1=O (centres undefined) | >57 | -3%
C=CCn1c(COc2cccc(C)c2)nnc1SCC(=O)NC(=O)NCc1ccco1 | >57 | -19%
O=C(Nc1ccccc1N1CCCCC1)c1ncoc1-c1ccc(F)cc1 | >57 | -1%
COC(=O)[C@@H]1[C@@H]2C[C@H]3c4[nH]c5ccccc5c4CCN3C[C@@H]2CC[C@@H]1OS(=O)(=O)O | >57 | -8%[8 µM]
COc1ccc(-c2cc(C(=O)N3CCOCC3)c3cc(C)ccc3n2)cc1 | >57 | 1%
COc1ccc2nc(Nc3ccc4c(c3)OCO4)sc2c1 | >57 | -2%
O=S(=O)(c1ccc(Oc2ncnc3scc(-c4ccccc4)c23)cc1)N1CCOCC1 | >57 | -3%
O=C(Nc1ccccc1C(=O)OCC(=O)N1CCc2ccccc2C1)c1ccco1 | >57 | 2%
CC(C)C(=O)N1c2ccccc2NC2=C(C(=O)CCC2)C1c1ccc(N(C)C)cc1 (centres undefined) | >57 | 7%
Cc1ccnc(Nc2nc3ccccc3o2)n1 | >57 | 5%
CCCN(C(=O)c1cccs1)c1nnc(-c2ccncc2)s1 | >57 | 0%
COc1ccc(CCn2c(O)c(C=NC3CC3)c(=O)[nH]c2=O)cc1OC | >57 | 6%
CC1=CC(C)C2C(=O)N(CCCN(C)C)C(=O)C2C1 (centres undefined) | >57 | 0%

Remaining list, next part
SMILES | Prx2 Sm inh | LT uptake inh
O=C(O)/C(=C\c1ccncc1)c1cccc2ccccc12 | >57 | 3%[8 µM]
Cc1cccc([N+](=O)[O-])c1C | . | 4%
COc1cccc(C(=O)Nc2ccc(S(=O)(=O)Nc3onc(C)c3C)cc2)c1 | . | 1%
Cc1ccccc1-n1c(SCc2c(C)noc2C)nnc1-c1c[nH]c2ccccc12 | >57 | -6%
Cc1ccc(S(=O)(=O)NCCCCCC(=O)Nc2nccs2)cc1 | >57 | -2%
CN1CC(=O)N(CC(=O)NCCc2ccc(F)cc2)c2ccccc2C1=O | >57 | -17%
CC(C)=CCC/C(C)=C/COc1c2ccoc2cc2oc(=O)ccc12 | >57 | ?
CSCCC(NC(=O)OC(C)(C)C)C(=O)NC(CC(C)C)C(N)=O (centres undefined) | >57 | -10%
CCCC12CN3CC(C)(CN(C1)C3c1ccc(OC)cc1)C2=O (centres undefined) | >57 | 2%
CCN(CC)CCCNC(=O)c1cc(-c2cccc(Cl)c2)on1 | >57 | -17%
COc1nonc1NC(=O)CSc1nc2ccccc2[nH]1 | >57 | -12%
O=C(Nc1ccc(Cc2ccncc2)cc1)C1CC1 | >57 | 7%
Cc1nc2ncnn2c(C)c1Cc1ccc(Cl)cc1F | >57 | 10%
CC1(C)CC(=O)C2=C(C1)Nc1ccccc1NC2c1ccc2c(c1)OCO2 (centres undefined) | >57 | -3%
CC1=CC(C)(C)N2C(=O)C3(C(C#N)=C(N)OC4=C3C(=O)CC(C)(C)C4)c3cccc1c32 (centres undefined) | >57 | -13%
CC(C)N1CC(O)=C(c2nc3ccccc3[nH]2)C1=N | >57 | 3%
Cc1sc2nc(C(C)C)nc(SCC(=O)N3CCN(C(=O)c4ccco4)CC3)c2c1C | >57 | 7%
CC(=O)N(OCc1ccccc1)[C@@H]1c2cc(C#N)ccc2OC(C)(C)[C@H]1O | . | 4%
c1ccc(CN2CCC3(CCc4ccccc43)CC2)cc1 | >57 | ?

The list is partial; count on the stated rates, not on these rows.
